# Pf growth 48h – P. falciparum growth inhibition at 48 hours (one generation). P. falciparum luciferase growth in erythrocytes, 48 h. Potency, µM (series often up to 28.7 µM), for the others: at the top dose activity change, negative = inhibition, most hits filed as inhibitors. 5.9% of 310,000 active. AID 504832
#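 Read-out is firefly luciferase luminescence from an integrated reporter in P. falciparum, so falling signal marks reduced parasite growth. Infected erythrocytes were at 2% hematocrit and 0.1% parasitemia (final) in Albumax-supplemented RPMI 1640.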
# FBPA Giardia inh – Giardia lamblia aldolase inhibition; Potency, µM (series often up to 59.6 µM), without a hit: at the top dose activity, negative = inhibition, most hits filed as inhibitors; purified Giardia FBPA; AID 2451; 0.71% of 290,000 active; A8B2U2; also: nearly all actives have a fitted effect of over 55% in size
# Target sequence (A8B2U2 whole entry, looked up): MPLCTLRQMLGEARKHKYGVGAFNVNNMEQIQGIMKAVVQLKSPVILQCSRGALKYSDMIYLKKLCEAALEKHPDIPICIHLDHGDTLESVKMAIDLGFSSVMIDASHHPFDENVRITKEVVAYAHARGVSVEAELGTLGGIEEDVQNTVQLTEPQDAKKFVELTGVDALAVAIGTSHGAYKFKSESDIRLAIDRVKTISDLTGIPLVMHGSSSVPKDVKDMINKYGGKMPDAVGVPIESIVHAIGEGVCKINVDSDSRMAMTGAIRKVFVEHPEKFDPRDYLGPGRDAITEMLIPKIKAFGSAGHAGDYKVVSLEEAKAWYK
#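 Giardia FBPA (40 nM reagent) was preincubated 10 min at RT with compound (up to 57.5 uM final), then substrate plus GAPDH/TPI/NAD/arsenate coupling system with diaphorase/resazurin was added; resorufin fluorescence (525/598 nm) was read after 20 min.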
# Pf growth 96h – P. falciparum growth inhibition at 96 hour, primary screen for plastid delayed-death inhibitors; P. falciparum luciferase reporter growth, 96 h; Potency, µM (series often up to 28.7 µM), for the others: at the highest dose activity change, negative = inhibition, most hits filed as inhibitors; 6.9% of 320,000 active; AID 504834
#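 Infected RBCs, 2% Hct / 0.05% parasitemia final; luciferase-reporter P. falciparum; cpd 96 h, 37 C, 5% CO2; luciferase detection reagent; luminescence.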
# Active calls of the source: *; u = inconclusive; x = not tested or not shown; & = joins results of further samples; [ ] = another dose, or the depositor's remark. Calls follow the shape of the dose curve; as a rule, active = well fitted curve in the direction sought with a large enough effect; inconclusive = small, poorly fitted or top-dose-only effect, or another doubt; inactive = no such curve, though single readings can be large; an effect the other way counts as inactive or inconclusive. % is scaled to controls: 0 for no effect and ±100 for the full control effect; potency is read from the fitted curve at half-maximal effect. An excerpt; rates above refer to the full screens.
(1) COc1ccc(Nc2cc(C(=O)NC3CCCC3)c3ccccc3n2)c(OC)c1
(2) CCOc1cc(C)c(Cl)cc1S(=O)(=O)N(C)C
(3) N#CC1=C(N)Oc2c(oc(CO)cc2=O)C12C(=O)Nc1ccc(Cl)cc12 (configuration not stated)
(4) CN1C(=O)C(O)N=C(c2ccccc2)c2cc(Cl)ccc21 (configuration not stated)
(5) CSc1nc(N2CCOCC2)c2c3c(sc2n1)CCC3
(6) CC(=O)Nc1c(I)c(NC(C)=O)c(I)c(C(=O)O)c1I
assay / compound	1	2	3	4	5	6
Pf growth 48h	-14%	-8%	17%	-15%	u	-8%&-2%&4%
Pf growth 96h	u	u	x	u	15%	1%&4%&3%
FBPA Giardia inh	-5%	-6%	2%	1%	4%	-8%&1%

(7) NCCc1nc(-c2ccccc2)cs1
(8) COc1cc2nc(N3CCN(C(=O)[C@@H]4CCCO4)CC3)nc(N)c2cc1OC
(9) CCCCC1=NC2(CCCC2)C(=O)N1Cc1ccc(-c2ccccc2-c2nn[nH]n2)cc1
(10) NC(Cc1ccc(O)c([N+](=O)[O-])c1)C(=O)O (configuration not stated)
(11) C[N+]1(C)CC[C@H](OC(=O)[C@@](O)(c2ccccc2)C2CCCC2)C1
(12) CCOC(=O)c1c(-c2ccccc2)oc2ccc(OC(=O)N(C)C)cc12
assay / compound	7	8	9	10	11	12
Pf growth 48h	-5%	u	u	-28%	-3%	-29%
Pf growth 96h	13µM*	u	u	u	0%	x
FBPA Giardia inh	-1%	u	-16%&-20%	u	-11%	5%

(13) CC1(C)SC2[C@H](NC(=O)C(NC(=O)N3CCNC3=O)c3ccccc3)C(=O)N2C1C(=O)O (some centres not stated)
(14) CSc1ccc(S(=O)(=O)NCc2ccccc2Cl)cc1
(15) N#Cc1ccc(OCC(O)CN2CCC(C(O)(c3ccccc3)c3ccccc3)CC2)cc1 (configuration not stated)
(16) COCCN(CCOC)C(=O)CCn1c(=O)oc2ccccc21
(17) CC(=O)OCP(C)(=O)COC(C)=O
(18) COc1ccc2cc([C@H](C)C(=O)O)ccc2c1
assay / compound	13	14	15	16	17	18
Pf growth 48h	-11%	4%	u	-11%	10%	-21%
Pf growth 96h	81%[activator]	7%	u	1.2µM*	x	-18%
FBPA Giardia inh	-8%	-2%	23%	4%	1%	-4%

(19) O=S(=O)(c1cccc2nsnc12)N1CCN(c2ncccn2)CC1
(20) COc1ccc(C2c3c(C)nn(-c4ccccc4)c3NC(=O)N2c2ccccc2)cc1 (configuration not stated)
(21) COc1ccc(NC2CS(=O)(=O)CC2NCc2ccccc2)cc1 (configuration not stated)
(22) CN1[C@@H]2CC(OC(=O)[C@H](CO)c3ccccc3)C[C@H]1[C@@H]1O[C@@H]12 (some centres not stated)
(23) NC1CONC1=O (configuration not stated)
(24) Cc1nc2ccc(Cl)cc2c(-c2ccccc2)c1C(=O)O
assay / compound	19	20	21	22	23	24
Pf growth 48h	11%	-6%	1%	-18%&15%&-4%	x	-4%
Pf growth 96h	-7%	u	33%[activator]	4%&64%&-7%	x	u
FBPA Giardia inh	4%	-1%	-17%	-6%&-8%	-5%&-12%	-14%

# Reprinted, compounds 12 to 21
(12) CCOC(=O)c1c(-c2ccccc2)oc2ccc(OC(=O)N(C)C)cc12
(13) CC1(C)SC2[C@H](NC(=O)C(NC(=O)N3CCNC3=O)c3ccccc3)C(=O)N2C1C(=O)O (some centres not stated)
(14) CSc1ccc(S(=O)(=O)NCc2ccccc2Cl)cc1
(15) N#Cc1ccc(OCC(O)CN2CCC(C(O)(c3ccccc3)c3ccccc3)CC2)cc1 (configuration not stated)
(16) COCCN(CCOC)C(=O)CCn1c(=O)oc2ccccc21
(17) CC(=O)OCP(C)(=O)COC(C)=O
(18) COc1ccc2cc([C@H](C)C(=O)O)ccc2c1
(19) O=S(=O)(c1cccc2nsnc12)N1CCN(c2ncccn2)CC1
assay / compound	12	13	14	15	16	17	18	19
Pf growth 48h	-29%	-11%	4%	u	-11%	10%	-21%	11%
Pf growth 96h	x	81%[activator]	7%	u	1.2µM*	x	-18%	-7%
FBPA Giardia inh	5%	-8%	-2%	23%	4%	1%	-4%	4%

(20) COc1ccc(C2c3c(C)nn(-c4ccccc4)c3NC(=O)N2c2ccccc2)cc1 (configuration not stated)
(21) COc1ccc(NC2CS(=O)(=O)CC2NCc2ccccc2)cc1 (configuration not stated)
assay / compound	20	21
Pf growth 48h	-6%	1%
Pf growth 96h	u	33%[activator]
FBPA Giardia inh	-1%	-17%

# (more compounds)
(25) CC(=O)OCC(=O)C1(O)CCC2C3CCC4=CC(=O)C=CC4(C)C3C(O)CC21C (configuration not stated)
(26) Cc1ccc(-c2csc(NC(=O)c3cccs3)n2)cc1
(27) Nc1nc2ncc(CNc3ccc(C(=O)N[C@@H](CCC(=O)O)C(=O)O)cc3)nc2c(=O)[nH]1
(28) CCOc1ccccc1C(=O)N(Cc1cccs1)C1CCS(=O)(=O)C1 (configuration not stated)
(29) CCN(C(=O)COc1cc(=O)n(CC)c2ccccc12)c1cc(Cl)ccc1OC
(30) CC1=C(CC(=O)O)c2cc(F)ccc2/C1=C\c1ccc(S(C)=O)cc1 (configuration not stated)
(31) O=S(=O)(NC1CCCCC1NCc1ccco1)c1ccc(Cl)cc1 (configuration not stated)
assay / compound	25	26	27	28	29	30	31
Pf growth 48h	0%	-30%	0%	-8%	x	18%&-8%	11%
Pf growth 96h	-3%	x	17%	16%	u	u	6%
FBPA Giardia inh	-1%	-16%	u	1%	12%	8%	8%
